Bioassay records deposited in PubChem by Johns Hopkins Ion Channel Center.
KCNQ2 enhance = KCNQ2 (rat) channel potentiation; O88943; CHO-K1 KCNQ2, FluxOR thallium flux fluorescence; active compounds read high; B-score at 10 µM; 0.54% of 310,000 active; AID 2239;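 active = fluorescence ratio B-score at least 3 SD of library B-scores, with initial fluorescence B-score within 3 SD, cut at about 5.3 in these data; same plate scores as AID 2156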;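 note: B-score of peak minus minimum over baseline fluorescence ratio after K+ and Tl+ stimulus; positive B-score means potentiation of KCNQ2 with more thallium influx and brighter signal; only the inactives scoring about 0 or higher are listed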
Target sequence (O88943 whole entry, looked up): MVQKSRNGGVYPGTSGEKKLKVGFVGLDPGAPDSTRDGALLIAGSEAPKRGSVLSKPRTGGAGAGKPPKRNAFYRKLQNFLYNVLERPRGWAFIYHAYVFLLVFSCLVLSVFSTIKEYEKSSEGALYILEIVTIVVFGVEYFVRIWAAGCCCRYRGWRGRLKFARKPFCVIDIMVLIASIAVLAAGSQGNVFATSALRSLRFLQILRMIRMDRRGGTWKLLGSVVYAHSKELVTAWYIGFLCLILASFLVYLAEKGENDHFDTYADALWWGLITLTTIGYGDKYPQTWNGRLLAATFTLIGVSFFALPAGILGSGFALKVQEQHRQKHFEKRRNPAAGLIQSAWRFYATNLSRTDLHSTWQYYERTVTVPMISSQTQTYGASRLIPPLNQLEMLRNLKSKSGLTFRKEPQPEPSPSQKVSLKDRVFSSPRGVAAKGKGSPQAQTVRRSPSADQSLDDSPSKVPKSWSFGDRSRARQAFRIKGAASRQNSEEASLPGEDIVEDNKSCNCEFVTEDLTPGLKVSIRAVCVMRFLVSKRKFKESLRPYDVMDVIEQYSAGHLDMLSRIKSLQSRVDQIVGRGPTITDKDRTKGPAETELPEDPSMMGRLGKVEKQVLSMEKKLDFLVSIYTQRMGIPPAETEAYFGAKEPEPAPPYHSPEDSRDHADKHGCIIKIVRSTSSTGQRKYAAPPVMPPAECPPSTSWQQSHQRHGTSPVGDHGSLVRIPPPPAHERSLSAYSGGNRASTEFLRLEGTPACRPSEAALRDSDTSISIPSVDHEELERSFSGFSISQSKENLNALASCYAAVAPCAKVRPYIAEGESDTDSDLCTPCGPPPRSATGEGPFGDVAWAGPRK
KCNQ2 enhance baseline = also measured in KCNQ2 enhance; calls as there; B-score; compound at 10 µM; measured here: initial fluorescence intensity artifact check;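 brightness before thallium and not channel activity; 0 = typical well and far values either way flag optical interference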
* = called active by the depositor. The list is partial, so the mix of outcomes need not match the whole.

| mol | KCNQ2 enhance | KCNQ2 enhance baseline |
| --- | --- | --- |
| Cc1ccccc1-c1n[nH]c(=S)n1/N=C/c1c(C)nn(-c2ccccc2)c1C | 0.88 | -0.54 |
| Cc1ccc(S(=O)(=O)CCc2nc3ccccc3s2)cc1 | 0.22 | 2.6 |
| Cn1c(CNC(=O)c2ccccc2F)nnc1SCCOc1ccccc1 | 1.8 | 0.46 |
| O=C(c1sccc1-c1ccccc1)N1CCN(S(=O)(=O)c2ccccc2F)CC1 | 0.07 | -1.1 |
| COc1ccc(C(C)=O)cc1COC(=O)Cn1cnc2ccccc2c1=O | 1 | 0.08 |
| CN(C)c1oc(COc2ccccc2F)nc1C#N | 0.92 | 0.41 |
| CCCCOc1ccc(C(=O)NCC(=O)NCC(c2ccco2)N2CCCCC2)cc1 (centres undefined) | 0.84 | -0.49 |
| COc1ccc(C(C(=O)NC2CCCC2)N(C(=O)c2csnn2)C2CC2)cc1 (centres undefined) | 1.1 | -1.5 |
| CCOC(=O)c1cn(CC)c2cc(F)c(F)cc2c1=O | 2.5 | -2.9 |
| C=CCN1C(=O)C(CC(=O)NCC)SC1=Nc1ccccc1OC (centres undefined) | 0.45 | 1.8 |
| COC(=O)c1nn(-c2ccc(F)cc2)ccc1=O | 0.58 | 1.2 |
| CCCC(O)(c1ccc(OC)cc1)C(CN(C)C)c1ccccc1 (centres undefined) | 0.59 | 0.44 |
| O=C(Nc1ccc(C(=O)O)cc1)/C(=C\c1ccc2c(c1)OCO2)NC(=O)c1ccco1 | 6.5* | 0.5* |
| Cc1ccc(SC(CC(=O)c2ccc(C(C)(C)C)cc2)C(=O)O)cc1 (centres undefined) | 1.4 | -0.59 |
| COc1ccc(N2CCN(C(=O)c3ccc4c(=O)n(CC5CCCO5)c(=O)[nH]c4c3)CC2)cc1 (centres undefined) | 0.9 | -1.5 |
| CCOC(=O)Cn1nc(C)n(-c2c(C)cccc2C)c1=O | 0.34 | -0.24 |
| COc1ccc2[nH]c(=O)c(CN(CCO)S(=O)(=O)c3c(C)ccc4nsnc34)cc2c1 | 1.3 | -1.1 |
| O=C(COc1ccccc1)N1CCN(S(=O)(=O)c2ccc(Cl)cc2)CC1 | 1 | -0.09 |
| Brc1ccc2c(c1)OCCOCCOCCOCCOCCO2 | 0.31 | 1.5 |
| Fc1ccc(Nc2nc(N/N=C/c3ccco3)nc(N3CCCCC3)n2)cc1 | 1.1 | -0.27 |
| CN(CCC(=O)Nc1ccc(Cl)cc1)Cc1ccccc1 | 2.3 | 0.62 |
| Cc1ccc(C(=O)NCC(=O)NCc2cc(=O)n(C)c(=O)n2C)cc1C | 0.83 | -0.37 |
| O=S(=O)(NCc1ccccc1)c1ccc(-n2cccn2)cc1 | 0.56 | 0.96 |
| CC(C)N=C(Nc1ccc(Cl)cc1)c1cccnc1 | 1.2 | -0.52 |
| O=C(Cn1[nH]c(=O)c2ccccc2c1=O)NCc1cccnc1 | 1.4 | 0.46 |
| CC1=C(C(=O)OC2CCCCCCC2)C(c2cccc(O)c2)NC(=O)N1 (centres undefined) | 20* | 0.87* |
| CC1=CN2C(=NC(=O)CC2(C)C(=O)N(CC(=O)NC2CCCC2)c2cc(C)cc(C)c2)C=C1 (centres undefined) | 0.03 | -0.41 |
| Cc1cccc(NC(=O)c2cccnc2Oc2ccccc2)c1C(=O)O | 0.22 | 1.9 |
| COc1ccc(-n2ccnc(SCC(=O)NCc3ccc(C)cc3)c2=O)cc1Cl | 2.7 | 0.88 |
| O=C1C=C(O)C(n2cncn2)C(c2ccc3c(c2)OCO3)C1 (centres undefined) | 0.52 | 0.2 |
| CN1C2CCC1CC(NC(=O)c1cc(Cl)cc3[nH]cnc13)C2 (centres undefined) | 1 | 2.2 |
| CCN(CC)S(=O)(=O)c1ccc(N=N/C(C(C)=O)=C(/C)O)cc1 | 2.9 | -1.1 |
| CC/C(C)=N\N=C\c1c(O)n(CC)c2cc(C3=NNC(=O)CC3)ccc12 | 1 | -0.2 |
| Cc1c(C(=O)N2CCCCC2)c(S(=O)(=O)N2CCN(c3ccccc3F)CC2)c(C)n1C | 0.02 | 1 |
| N#Cc1c(NC(=O)c2ccccc2)sc2c1CCCCC2 | 1.3 | -0.67 |
| Cn1cnnc1Sc1ccc(C(=O)OCC(=O)Nc2cc(Cl)cc(Cl)c2)cc1[N+](=O)[O-] | 0.09 | 0.03 |
| CCc1ccc(S(=O)(=O)NCc2ccc(N3CCN(C)CC3)cc2)cc1 | 0.01 | 0.61 |
| CC(c1ccccc1C(O)c1ccccc1)N(C)C (centres undefined) | 0.59 | -1.8 |
| O=C(O)c1ccc(-n2nc(-c3ccccc3)c3ccccc3c2=O)cc1 | 1.4 | -0.3 |
| Cn1nnnc1SCCNCC#Cc1ccccc1 | 0.54 | 1.5 |
| COc1ccccc1CNC(=O)c1ccc(OC(F)F)c(OC)c1 | 0.63 | 0.25 |
| CC(OC(=O)c1ccc(Cl)c(S(=O)(=O)N2CCOCC2)c1)C(=O)Nc1ccc(S(N)(=O)=O)cc1 (centres undefined) | 0.66 | -2 |
| Cc1onc(-c2ccccc2Cl)c1C(=O)N1CCc2ccccc21 | 0.02 | -0.39 |
| CCOc1ccc(NC(=O)CCC(=O)OC)cc1 | 0.29 | -2.5 |
| COc1ccc(N2C(=O)NC3CC2(C)Oc2ccc(Cl)cc23)cc1OC (centres undefined) | 0.57 | -1.3 |
| Cc1ccc(Oc2ncnc(N)c2[N+](=O)[O-])cc1 | 0.12 | -1.4 |
| O=C(CNC(=O)c1ccc2c(c1)OCCO2)N/N=C/c1ccc([N+](=O)[O-])cc1 | 1.1 | 0.59 |
| Cc1cc(NS(=O)(=O)c2ccc(NC(=O)CCc3ccccc3)cc2)no1 | 1.3 | -1.6 |
| O=C(Cc1c(Cl)cccc1Cl)Nc1ccc(S(=O)(=O)Nc2ncccn2)cc1 | 0.02 | -0.09 |
| CCn1c(Cc2ccccc2)nnc1SCC(=O)Nc1cc(C)on1 | 0.54 | 0.03 |
| Cc1ccc([N+](=O)[O-])cc1Nc1nc(N2CCCC2)nc(N2CCCC2)n1 | 2 | 0.88 |
| O=C(O)C1CCCCC1C(=O)Nc1ccc(S(=O)(=O)N2CCCCC2)cc1 (centres undefined) | 0.25 | -1.1 |
| COc1cc(NC(=O)c2ccc3nsnc3c2)cc(OC)c1OC | 0.79 | -0.26 |
| COc1ccc2nc(NC(=O)Cn3cnc4ccccc4c3=O)sc2c1 | 0.18 | 1.6 |
| O=C(NC(=S)Nc1ccc2cn[nH]c2c1)c1ccccc1 | 0.05 | -0.56 |
| CC(=O)c1ccc(N2CCN(C(=O)CCCc3nc4ccccc4s3)CC2)cc1 | 2 | -0.04 |
| COc1ccc(N/C=C2/Sc3ccccc3NC2=O)cc1 | 1 | 0.37 |
| O=C(CSc1n[nH]c(-c2cccnc2)n1)Nc1ccc([N+](=O)[O-])cc1Br | 0.32 | 0.69 |
| CCc1cc(=O)oc2cc(C)cc(OC(C)C(=O)NC3CCN(Cc4ccccc4)CC3)c12 (centres undefined) | 0.73 | -0.55 |
| COc1ccc(-c2cc(C(=O)N3CCN(c4ccc(F)cc4)CC3)no2)cc1 | 1.1 | -1.1 |

(listing goes on)
mol,KCNQ2 enhance,KCNQ2 enhance baseline
S=C(Nc1cccc(Cl)c1)Nc1ccc2c(c1)OCCO2,0.72,3.6
CC(C(=O)NCc1ccccc1)N1C(=O)C2CC=C(Cl)CC2C1=O (centres undefined),0.54,1.4
CCCN1CCC(NC(=O)Cc2ccccc2OC)CC1,0.02,-0.08
CC1CN(c2oc(-c3ccco3)nc2S(=O)(=O)c2ccccc2)CC(C)O1 (centres undefined),0.71,-1.8
Cc1ccc(C(=O)NCc2nnc(SCC(=O)NC(C)c3ccccc3)n2C)cc1 (centres undefined),1.2,0.29
CCCCCC(=O)NNC(=S)NC(=O)c1ccc([N+](=O)[O-])cc1,2,0.18
CC(C)(C)c1ccc(-c2csc(NC(=O)CN3C(=O)NC4(CCCCC4)C3=O)n2)cc1,2.5,-0.86
C(=N\N1CCN(C2c3ccccc3-c3ccccc32)CC1)/c1ccccn1,0.48,-0.21
NCCCCCNC(=O)/C=N\O,0.2,2.3
CC(=O)Oc1ccc(C(=O)Nc2nccs2)cc1,1.2,0.68
O=C(NCC1CCCO1)c1nn2cccnc2c1Cl (centres undefined),1.1,1.2
Cc1cccc[n+]1CC(=O)c1ccc2c(c1)OCCO2,0.11,1.9
CS(=O)(=O)N(CC(=O)N1CCCCC1)Cc1ccc(Cl)cc1,0.65,0.43
COc1cc(NC(=S)N2CCN(CCO)CC2)c(OC)cc1Cl,0.11,-0.53
c1ccc2nc3c(nc2c1)CCc1nonc1-3,0.56,-0.03
CC(C)c1nc(SCC(=O)Nc2cccc(S(N)(=O)=O)c2)n[nH]1,1.2,0.38
CCCOc1ccc(Cc2nn[nH]n2)cc1,0.78,-0.16
O=C(NCCCN1CCOCC1)c1onc(CSc2nc3ccccc3[nH]2)c1C(=O)NCCCN1CCOCC1,0.09,-1.3
CC1Cn2c(nc3sc4c(c3c2=O)CC(C)(C)OC4)N1CCO (centres undefined),0.01,1.6
O=C(NCc1ccccc1)c1cc(S(=O)(=O)N2CCCCC2)ccc1N1CCOCC1,0.53,-2.2

Part of the list above, with two lines to a compound:
Below each compound – KCNQ2 enhance, KCNQ2 enhance baseline
> O=C(NCCCN1CCOCC1)c1onc(CSc2nc3ccccc3[nH]2)c1C(=O)NCCCN1CCOCC1
→ 0.09, -1.3
> CC1Cn2c(nc3sc4c(c3c2=O)CC(C)(C)OC4)N1CCO (centres undefined)
→ 0.01, 1.6

An excerpt of these results, with each value named.
structure: Cc1ccc(C(=O)NCc2nnc(SCC(=O)NC(C)c3ccccc3)n2C)cc1 (centres undefined)
- KCNQ2 enhance: 1.2
- KCNQ2 enhance baseline: 0.29

structure: CCCCCC(=O)NNC(=S)NC(=O)c1ccc([N+](=O)[O-])cc1
- KCNQ2 enhance: 2
- KCNQ2 enhance baseline: 0.18

The list continues:
mol,KCNQ2 enhance,KCNQ2 enhance baseline
COCCCNC(=O)C(=O)N/N=C/c1cc2c(cc1Br)OCO2,0.24,-2.2
COc1ccccc1NC(=O)NNC(=O)CCc1ccccc1,0.84,-1.7
CCCOc1ccc(C(=O)NC(=S)N2CCN(c3cc4c(cc3F)c(=O)c(C(=O)O)cn4CC)CC2)cc1,0.08,-1.9
COc1cccc(CC2(CO)CCCN(Cc3cn[nH]c3-c3cc(C)ccc3C)C2)c1 (centres undefined),1.1,-1.2
O=C(N/N=C/c1ccncc1)c1sc2ccccc2c1Cl,0.04,-1.2
Cc1cc2nc(-c3cccnc3SCC(=O)NC(C)C)[nH]c2cc1C,2,1.7
Cc1ncc(CO)c(/C=N/NC(=O)c2cc(O)c(O)c(O)c2)c1O,0.27,-1.3
COC(=O)c1ccc(/C=C2/SC(=S)N(CCCC(=O)Nc3ccc(O)cc3)C2=O)cc1,0.46,-1.6
COC(=O)c1ccc(CSc2nnc(NC(=O)C3CC(=O)N(c4ccc5c(c4)OCCO5)C3)s2)cc1 (centres undefined),0.16,0.25
CS(=O)(=O)c1ccc(Cl)c(NC(=O)COC(=O)CCCN2C(=O)c3cccc4cccc(c34)C2=O)c1,0.08,0.05
CC(Oc1ccccc1)C(=O)N=C1SC2CS(=O)(=O)CC2N1Cc1ccc(F)cc1 (centres undefined),2.2,0.32
O=C(Nc1cccnc1)c1ccc(-c2ccc(Cl)cc2)o1,0.7,-1.8
CC(C(=O)Nc1nncs1)N1C(=O)C2C3C=CC(C3)C2C1=O (centres undefined),0.84,-1.4
CC(C)NC(=O)COc1ncnc2sccc12,0.25,0.58
O=C(Nc1ccc2c(c1)OCO2)N1CCN(c2ccc(F)cc2)CC1,1.5,0.85
Cc1ccc(C(=O)Cn2nnc3ccccc32)cc1[N+](=O)[O-],1.4,-0.15
CC(C)Oc1ccc(CC2CC(=O)NC2=O)cc1 (centres undefined),0.04,0.05
COc1ccc(-c2cc(C(=O)N3CCCCC3)no2)cc1OC,1.4,0.92
Cn1c(-c2ccccc2)n[nH]c1=S,1.3,0.26
CC1CCN(CCCCOc2ccc(Cl)cc2)CC1,0.61,-0.27
CC(C)(C)c1ccc(C(=O)Nc2nnc(C3=COCCO3)o2)cc1,3.6,-0.18
Cc1ccc(S(=O)(=O)N2CCN(C(=O)COC(=O)c3cnc(C)cn3)CC2)c(C)c1,0.98,-0.29
Cc1cccc(C(=O)Nc2nnc(-c3ccco3)o2)c1,0.87,5.5
O=C(NCc1ccc2c(c1)OCO2)C1CCCCC1,1.6,0.78
CCC(CCC(=O)Nc1ccc(S(N)(=O)=O)cc1)C(=O)O (centres undefined),0.11,-0.07
Nc1n[nH]c(-c2ccc(F)cc2)n1,0.02,0.34
COc1ccc(OC)c(S(=O)(=O)N2CCCC(C(=O)NCc3ccncc3)C2)c1 (centres undefined),0.91,0.35
CCOc1ccc(S(=O)(=O)/N=C(\N)c2ccccc2)cc1,1.4,-0.01
O=C(Nc1ccncc1)c1ccc2ccccc2c1,1.4,-0.03
CCOc1ccccc1OCC(=O)Nc1ccc(N2CCCCC2)cc1,0.05,0.51
CCN(CC)CCn1c(/N=C/c2cc(Br)ccc2O)nc2ccccc21,2.7,-0.25
COc1ccc(OC)c(NC(=O)CSc2nnc(NC(=O)c3ccco3)s2)c1,0.46,-0.89
CCOC(=O)c1c(C)[nH]c(C(=O)COC(=O)/C=C/c2ccc(O)c(OC)c2)c1C,0.48,-0.83
COc1cc(/C=C(\C#N)c2nnc(N3CCOCC3)n2-c2ccccc2)ccc1O,0.29,0.57
Cc1ccc(-n2ncc3c(=O)n(Cc4ccccn4)cnc32)cc1C,1.1,-0.1
Cc1nc2ccccn2c1C(=O)C(=O)Nc1cc(F)ccc1F,1.7,-0.22
CC(C)N(CCn1c(SCC(=O)N2CC(=O)Nc3ccccc32)nc2ccccc2c1=O)C(C)C,1.1,0.63
O=C(Nc1ccc(F)c(F)c1)NC1CCCCC1,2.4,-1.6

In another format: results already given
O=C(NCc1ccc2c(c1)OCO2)C1CCCCC1
  KCNQ2 enhance = 1.6; KCNQ2 enhance baseline = 0.78
CCC(CCC(=O)Nc1ccc(S(N)(=O)=O)cc1)C(=O)O (centres undefined)
  KCNQ2 enhance = 0.11; KCNQ2 enhance baseline = -0.07
